Compound activity (PubChem BioAssay)
Polio RdRp inh: poliovirus RNA polymerase inhibition; P03300; poliovirus polymerase elongation, fluorescence polarization; active compounds read low; % elongation, % (compound at 16.7 µg/mL); actives 0.66% (n = 150,000); AID 588519; in the data active means % elongation below about 90%; further: some results filed as inactive read as strong as hits
Polio RdRp inh intensity: recorded beside Polio RdRp inh, whose call it bears; % elongation; measured here: total intensity read-out; formula for this scale not given here;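 total fluorescence in place of polarization; lower means less elongation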
The depositor's hits bear a star.

> COc1cc(C(c2c(C)[nH][nH]c2=O)c2c(C)[nH][nH]c2=O)ccc1OC(=O)c1cccc(C)c1
  Polio RdRp inh: 110.0 | Polio RdRp inh intensity: 112.0
> Cc1cncn1CCc1nc2c3ccccc3nc(SCC(=O)Nc3cccc(Cl)c3)n2n1
  Polio RdRp inh: 110.0 | Polio RdRp inh intensity: 107.0
> COc1ccc(-n2nc3c(N4CCCC(C(=O)NCc5ccccc5C)C4)nnc(C)c3c2C)cc1 (configuration not stated)
  Polio RdRp inh: 105.0 | Polio RdRp inh intensity: 97.0
> COCCn1c(SCC(=O)Nc2ccc(F)c(Cl)c2)nc2c(oc3ccccc32)c1=O
  Polio RdRp inh: 101.0 | Polio RdRp inh intensity: 105.0
> Cc1nc2c(-c3ccccc3)c(C)[nH]n2c(=O)c1Cc1ccc(Br)cc1
  Polio RdRp inh: 113.0 | Polio RdRp inh intensity: 116.0
> O=C(CCCCCn1c(=O)c2sccc2n(CC(=O)Nc2cccc(Cl)c2)c1=O)NCc1ccc2c(c1)OCO2
  Polio RdRp inh: 102.0 | Polio RdRp inh intensity: 102.0
> Cc1cccc(N2CCN(C(=O)CCC(=O)NNc3nc4ccccc4c4nc(C)nn34)CC2C)c1 (configuration not stated)
  Polio RdRp inh: 104.0 | Polio RdRp inh intensity: 107.0
> O=C(Cn1c(=O)n(Cc2ccco2)c(=O)c2oc3ccccc3c21)Nc1ccccc1
  Polio RdRp inh: 108.0 | Polio RdRp inh intensity: 104.0
> COc1ccc(Cn2c(SCc3ccc(C(=O)NC4CCCC4)cc3)nc3ccncc32)cc1
  Polio RdRp inh: 106.0 | Polio RdRp inh intensity: 109.0
> COc1ccc(-c2cn3cccnc3n2)cc1NC(=O)c1cc(C)cc(C)c1
  Polio RdRp inh: 106.0 | Polio RdRp inh intensity: 111.0
> CCCCn1cnc2cc(NCc3ccccc3Cl)ccc21
  Polio RdRp inh: 103.0 | Polio RdRp inh intensity: 107.0
> O=C(CSc1nc2ccccc2n1Cc1cccc(Cl)c1)N1CCN(c2ccc(F)cc2)CC1
  Polio RdRp inh: 116.0 | Polio RdRp inh intensity: 112.0
> COc1ccc(CC(=O)Nc2c(C(=O)N3CCN(c4ccccc4F)CC3)oc3ccccc23)cc1OC
  Polio RdRp inh: 105.0 | Polio RdRp inh intensity: 107.0
> CC(O)CNC(=O)C(=O)Nc1c2c(nn1-c1ccc(Cl)cc1)CSC2 (configuration not stated)
  Polio RdRp inh: 105.0 | Polio RdRp inh intensity: 105.0

Five compounds picked at random from the list so far, as already listed:
> CC(O)CNC(=O)C(=O)Nc1c2c(nn1-c1ccc(Cl)cc1)CSC2 (configuration not stated)
  Polio RdRp inh: 105.0 | Polio RdRp inh intensity: 105.0
> Cc1cccc(N2CCN(C(=O)CCC(=O)NNc3nc4ccccc4c4nc(C)nn34)CC2C)c1 (configuration not stated)
  Polio RdRp inh: 104.0 | Polio RdRp inh intensity: 107.0
> Cc1cncn1CCc1nc2c3ccccc3nc(SCC(=O)Nc3cccc(Cl)c3)n2n1
  Polio RdRp inh: 110.0 | Polio RdRp inh intensity: 107.0
> COc1ccc(-c2cn3cccnc3n2)cc1NC(=O)c1cc(C)cc(C)c1
  Polio RdRp inh: 106.0 | Polio RdRp inh intensity: 111.0
> O=C(Cn1c(=O)n(Cc2ccco2)c(=O)c2oc3ccccc3c21)Nc1ccccc1
  Polio RdRp inh: 108.0 | Polio RdRp inh intensity: 104.0

An excerpt (hit frequency here may not be typical).
